T cruzi inh: T. cruzi replication inhibition; T. cruzi beta-gal in NIH3T3, luminescence, 90 h; inhibition, % (concentration not given with the values); 300,000 compounds, 1.4% hits; AID 1885;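 active = mean inhibition across valid replicates above about 55%, limit read from the data; inconclusive = mean below that limit but half or more replicates reach it; inactive = mean below it, under half of replicates reach it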;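 note: signal also drops with host cell toxicity which is not excluded here; 0% = plate median of DMSO wells and 100% = zero luminescence signal; higher percent means less beta-gal luminescence so fewer parasites; stock transfer was 50 nL into about 50 µL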
B2AR ag: activates human beta-2 adrenergic receptor causing internalization | P07550 | Am2.2-beta2AR cells, FAP receptor internalization, flow cytometry; reference of the scale not given here | response, % (no concentration beside the values) | 340,000 compounds, 0.43% hits;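 active = response above a set limit, near 3 SD of response in nonfluorescent compounds, cut at about 42% in these data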;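 note: stock transfer was 100 nL into about 11 µL; a reference agonist was the positive control; negative values mostly stem from fluorescent compounds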
Target sequence (P07550 whole entry, looked up): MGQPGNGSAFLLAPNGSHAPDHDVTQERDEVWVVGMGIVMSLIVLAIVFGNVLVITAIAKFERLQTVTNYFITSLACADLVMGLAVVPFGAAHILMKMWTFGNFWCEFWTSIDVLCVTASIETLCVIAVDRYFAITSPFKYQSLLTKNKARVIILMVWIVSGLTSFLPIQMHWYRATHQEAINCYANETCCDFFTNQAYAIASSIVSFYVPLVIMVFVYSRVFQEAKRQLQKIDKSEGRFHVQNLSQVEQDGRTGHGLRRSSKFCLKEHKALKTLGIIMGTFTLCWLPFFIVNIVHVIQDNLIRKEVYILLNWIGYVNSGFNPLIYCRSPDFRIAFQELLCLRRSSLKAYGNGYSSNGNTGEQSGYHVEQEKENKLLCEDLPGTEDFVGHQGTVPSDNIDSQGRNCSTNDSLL
Beta cell apopt: blocks beta cell apoptosis. protection from apoptosis, % (concentration not given with the values). INS-1E cytokine-induced death, ATP luminescence, 48 h; percent of positive-control rescue, neutral wells zero. 300,000 compounds, 0.8% hits;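 active = all replicates at 75% or more, or half of them and the mean; inconclusive = half reach 75% but not the mean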;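 note: 0% = cytokine-treated negative control wells and 100% = positive control rescue; higher means more ATP so stronger rescue from cytokine killing; wells of about 40 µL received 100 nL stock; the first replicate is given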
RanGTP-Impb inh: disruptors of Ran-importin-beta complex formation – biochemical, FRET, CFP-Ran, YFP-importin-beta, homogeneous, primary screen | AID 2216 | 300,000 compounds, 1.1% hits | cell-free CFP-Ran/YFP-importin-beta FRET ratio | inhibition, % (test concentration not listed);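 active = most replicates above 15%; inconclusive = exactly half above 15%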;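 note: 0% = DMSO wells and 100% = Ran loaded with GDP instead of GTP; wells of about 40 µL received 100 nL stock; the first replicate is given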
Calb FLC: C. albicans growth modulation with fluconazole | C. albicans CaCi-2 (fluconazole-resistant clinical isolate) + fluconazole, Alamar Blue growth, 48 h | growth inhibition, % (concentration not given with the values) | 300,000 compounds, 0.57% hits;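 active = most replicates above 75%; inconclusive = exactly half above 75%; inactive = most below 75%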;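 note: all wells also contain fluconazole at 8 µg/ml as a sub-toxic cotreatment; 0% = median of DMSO wells and 100% = median of geldanamycin control wells; wells of about 8 µL received 7.5 nL stock; the first replicate is given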
LANA-H2A inh: blocks KSHV LANA binding to histone H2A/H2B | 320,000 compounds, 0.6% hits | cell-free LANA-H2A/H2B peptide, fluorescence polarization | Q9QR71 | inhibition, % (no concentration beside the values); in the data active = inhibition mostly above about 10%, no sharp cut-off; inactive = mostly below about 6.7%;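 note: stock transfer was 7.5 nL into about 10 µL; 0% = median of vehicle wells and 100% = median of positive control wells; one replicate is shown; the record names a cut of 25% in any replicate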
Bfl-1 A1 inh: inhibitors of the anti-apoptotic protein A1, read as caspase activation; MEF A1-2A-BIM cells, Caspase-Glo 3/7 luminescence, 3 h; percent of clofoctol response, vehicle zero; caspase activation, % (no concentration beside the values); 330,000 compounds, 0.066% hits; AID 2462;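 active = over half of replicate activation scores above 10%, or exactly half above 10 with the replicate mean above 10; inconclusive = replicate mean below 10 yet half the replicates above 10; inactive = over half of replicates below 10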;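 note: wells of about 30 µL received 50 nL stock; many hits fall short of the cut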
UCH37 inh: human UCH37 deubiquitinating enzyme inhibition; Q9Y5K5; purified proteasome/UCH37, Ub-AMC cleavage fluorescence; inhibition, % (concentration not given with the values); 330,000 compounds, 0.33% hits;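 active = mean of two replicates above 20%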;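 note: 0% = compound-free wells with enzyme and 100% = wells lacking proteasome; stock transfer was 100 nL into about 20 µL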
Target sequence (Q9Y5K5 whole entry, looked up): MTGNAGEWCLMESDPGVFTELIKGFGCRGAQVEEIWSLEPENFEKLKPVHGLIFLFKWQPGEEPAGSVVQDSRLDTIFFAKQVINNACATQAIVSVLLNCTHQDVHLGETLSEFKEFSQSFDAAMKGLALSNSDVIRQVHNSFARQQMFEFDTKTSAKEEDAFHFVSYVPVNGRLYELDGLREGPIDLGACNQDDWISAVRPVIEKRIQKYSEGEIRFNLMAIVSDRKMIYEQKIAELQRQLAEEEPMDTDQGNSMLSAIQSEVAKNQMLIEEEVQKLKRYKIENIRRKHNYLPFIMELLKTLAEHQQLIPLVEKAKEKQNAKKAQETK
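Signal – fluorescence, ex 355 nm, em 460 nm · System – Proteasome-bound UCH37 · Input – 0.15 nM proteasome as dispensed · Timing – 30 min preincubation with enzyme, 25 min cleavage at room temperature · Read-out basis – percent inhibition of cleavage signal versus uninhibited and no-proteasome wells · Medium – Tris-HCl pH 7.4 with ATP-MgCl2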
Active calls of the source: *; ? = inconclusive; · = not tested or not shown.

SMILES | T cruzi inh | B2AR ag | Beta cell apopt | RanGTP-Impb inh | Calb FLC | LANA-H2A inh | Bfl-1 A1 inh | UCH37 inh
COc1ccc(NC(=S)N(CCN2CCOCC2)C2CCN(C(C)=O)CC2)cc1Cl | 5 | 0 | -1 | 5.4 | -2 | -3.6 | -0.5 | 1.0
COc1ccc(NC(=O)c2ccc3c(c2)NC(=O)CS3)cc1S(=O)(=O)Nc1ccc(Br)cc1 | -1 | -5 | 10 | 1.7 | 7 | -2.1 | -0.5 | 0.3
O=C(Cc1ccccc1F)Nc1ccccc1N1CCCC1 | 5 | 7 | 3 | -1.7 | -8 | -2.2 | 0.1 | 3.6
CCOC(=O)C1=C(CN2CCN(C(=O)c3ccco3)CC2)NC(=O)NC1c1ccc(OC)cc1 (stereo not given) | 0 | -10 | -6 | 3.3 | 6 | 1.6 | -0.4 | 1.9
O=C(c1cccc(S(=O)(=O)N2CCc3ccccc32)c1)N1CCN(c2ccccn2)CC1 | 21 | -9 | 8 | 1.7 | 3 | -2.6 | -0.8 | 4.5
O=C(Cn1ccc([N+](=O)[O-])n1)Nc1ccccn1 | 11 | 0 | -7 | 3.7 | 5 | 1.0 | 0.4 | 8.9
COc1ccc(C(=O)NNC2=Nc3cccc4cccc2c34)cc1 | 32 | 7 | 27 | 4.0 | -13 | 1.4 | -0.4 | 2.2
FC(F)(F)C(F)(F)C(F)(F)c1nnc2ccc(N3CCOCC3)nn12 | 3 | -8 | -6 | 11 | -9 | 2.0 | -1.0 | 4.6
COC(=O)CNC(c1ccccc1)c1cc(Br)ccc1NC(=O)OCc1ccccc1 (stereo not given) | -6 | 3 | 6 | 0.8 | -1 | 5.3 | 0.8 | 1.1
O=C(NCc1ccccc1)c1ccc(C(=O)N(C2CCCCC2)C2CCCCC2)cc1 | 61* | 5 | 16 | 2.1 | -4 | -1.8 | ? | 3.7
COc1ccc(C(=O)COC(=O)CN2C(=O)C3C4CCC(C4)C3C2=O)cc1 (stereo not given) | -2 | 0 | -1 | -0.5 | 2 | -2.4 | -0.9 | 4.1
CC(C)COC(=O)N1CCCC1C(=O)Nc1nccs1 (stereo not given) | -16 | -3 | -2 | 2.1 | -6 | -0.9 | 0.5 | 5.1
COc1ccccc1/C=C/c1nc(S(=O)(=O)c2ccccc2)c(N2CCC(C(N)=O)CC2)o1 | 0 | 13 | -10 | 1.1 | 4 | 4.0 | 0.4 | -227
CC(Sc1nc2ccccc2c(=O)n1C)C(=O)NC1CCCCC1C (stereo not given) | -5 | 1 | 25 | 9.0 | 20 | -5.5 | 1.1 | 0.7
CCn1cc(C(=O)NC2CCCCCC2)c(=O)c2ccc(C)nc21 | -8 | -3 | · | 10 | -2 | -5.2 | 1.0 | 1.5
CSCC[C@H](NC(=O)[C@H]1CC[C@H](CNC(=O)[C@@H]2CCCN2)CC1)C(=O)O | 14 | 7 | -3 | 5.3 | -5 | -1.6 | 1.2 | ·
CC1(c2cccc3ccccc23)NC(=O)N(CC(=O)NC2CCS(=O)(=O)C2)C1=O (stereo not given) | -2 | -5 | -3 | 5.8 | -4 | 1.3 | -0.8 | 4.0
S=c1[nH]nc(-c2cc(-c3ccsc3)n[nH]2)n1-c1cccc2ccccc12 | 0 | -6 | -8 | 0.9 | 49 | 1.0 | 0.0 | 0.3
CSc1cccc(NC(=S)N(CCC(C)C)C2CCN(C(C)=O)CC2)c1 | 8 | 13 | -11 | -1.3 | -6 | -7.1 | 1.0 | 5.4
CC1=CC(C)(C)N2C(=O)C3(C(C#N)=C(N)OC4=C3C(=O)CC(C)(C)C4)c3cc(C)cc1c32 (stereo not given) | 14 | 8 | 1 | 4.9 | 0 | -6.6 | 0.0 | 5.5
Cc1ccc(NC(=S)Nc2ccc(Br)cc2)cc1 | -1 | 8 | 2 | 1.3 | -1 | 4.4 | 0.0 | 0.8
CC1CC(C)CN(CCCNC(=O)CN2C(=O)c3cccnc3Oc3ccccc32)C1 (stereo not given) | 4 | -3 | -1 | 5.2 | -6 | 6.8 | 0.0 | -1.0
Cc1ccc(C)c(NC(=O)Nn2cnnc2)c1 | -15 | -3 | -2 | 1.7 | -2 | 0.6 | -0.1 | 1.5
O=C(NNC(=O)c1ccc(O)c(Cl)c1)c1cccc(S(=O)(=O)N2CCOCC2)c1 | -4 | 7 | -1 | ? | 14 | -5.0 | 0.0 | 4.0
CNc1c(NS(=O)(=O)c2ccc(Cl)cc2)c(=O)oc2ccccc12 | -15 | -12 | 2 | 6.9 | 33 | 4.1 | 0.5 | 4.1
CCOC(=O)N1CCN(C(=O)c2ccc3c(c2)NC(=O)/C(=C\c2cccc(C)c2)S3)CC1 | 21 | -1 | 10 | 5.4 | -1 | 2.3 | 0.2 | -8.4
CC(=O)OC(C(=O)NC1CCCCC1)c1ccc(Cl)cc1 (stereo not given) | -1 | -3 | 1 | -3.8 | -5 | -2.4 | 1.3 | 5.4
COc1ccccc1N1CCN(C(=O)Cn2c(=O)[nH]c3ccsc3c2=O)CC1 | -3 | -1 | 4 | 2.8 | -1 | -1.3 | 0.8 | 1.1
COc1ccc(/C=N/NC(=O)c2cc(-c3cccc(C)c3)nc3ccccc23)cc1O | -15 | 8 | 6 | 1.0 | 35 | -2.9 | 1.7 | ·
O=C(Cc1ccc(Cl)cc1)NC(=S)Nc1ccccc1N1CCOCC1 | · | -1 | 4 | · | · | -3.4 | -1.1 | 0.0
Cc1ccc(C(=O)Oc2ccc(N3C(=O)CCC3=O)c(C)c2)cc1 | 1 | 3 | 4 | -2.4 | -22 | 2.5 | -0.5 | 2.0
O=C(Nc1ccccc1)C1C2/C=C\CCCCC21 (stereo not given) | -2 | 3 | 2 | -3.4 | -8 | -4.1 | -0.1 | 1.7
Clc1cccc(OCCOCCN2CCNCC2)c1Cl | 32 | 1 | -3 | 1.0 | -14 | 2.1 | -1.5 | 6.7
O=C(N/N=C/c1ccc(Cl)cc1)c1n[nH]c2c1CCCC2 | 6 | 0 | 10 | 2.5 | 3 | 4.1 | 1.2 | ·
O=C(CN1C(=O)C(=O)c2ccccc21)OCN1C(=O)c2ccccc2C1=O | 2 | 1 | · | 4.9 | 19 | -4.9 | 1.3 | 3.6
Cc1sc(NC(=O)C2CC=CCC2C(=O)O)c(C(=O)OC(C)C)c1C (stereo not given) | 11 | 1 | -3 | 3.0 | 32 | -1.8 | 0.8 | 1.9
CCN(CC)c1ccc(N2C(=NC(=O)C3CC3)SC3CS(=O)(=O)CC32)cc1 (stereo not given) | 1 | 3 | 4 | 2.8 | 5 | -9.1 | -0.1 | -1.1
CN(Cc1ccccc1)C(=O)CCn1c(=O)oc2ccccc21 | -7 | -9 | -5 | 1.1 | -1 | 1.1 | -0.7 | 2.7
Cc1noc(C)c1S(=O)(=O)N1CCCC(C(=O)N2CCC(C)CC2)C1 (stereo not given) | 0 | 49* | -5 | -2.5 | -2 | -4.7 | -0.1 | 1.7
Cc1cc(N2CCCC2=O)cc(C)c1S(N)(=O)=O | -2 | 5 | -6 | 0.0 | -6 | -4.5 | 0.1 | 3.4
O=C(NCc1cccs1)C1CCCN1C(=O)Nc1cccc(Cl)c1 (stereo not given) | 0 | 0 | 2 | 4.5 | 2 | 5.1 | 0.7 | -0.6
CCOc1cc(/C=C/C(=O)OCC(=O)NCCN2C(=O)CSC2=O)ccc1OCC(C)C | · | 4 | 2 | · | · | -0.5 | 0.7 | -18
CSc1ccccc1C(=O)Nc1ccccc1C | 4 | 4 | -8 | 2.8 | 13 | -4.2 | 0.9 | 2.3
CCN(CC(=O)Nc1c(F)cccc1F)C(=O)c1cccnc1SC | -16 | -6 | -10 | 0.7 | -9 | -10 | -0.4 | 5.3
O=C(O)CCC(=O)Nc1ccc(Br)c(Cl)c1 | -2 | 4 | -10 | -2.5 | -1 | 4.3 | -0.6 | 0.5
Cn1ccnc1SCC(=O)Nc1cc(S(=O)(=O)N2CCOCC2)ccc1Cl | 0 | 3 | 3 | -6.6 | 18 | 2.0 | 0.9 | 1.0
CCC1Nc2ncnc(N3CCN(c4ccccc4)CC3)c2N(Cc2ccc(C)cc2)C1=O (stereo not given) | 46 | -8 | -2 | 2.0 | 3 | 2.9 | 0.7 | 2.1
COC(=O)c1ccc2c(C)c(C3(O)CCCCC3)[nH]c2c1 | · | -5 | 6 | · | · | 2.8 | -0.4 | -131

Laid out differently: results already given
CCC1Nc2ncnc(N3CCN(c4ccccc4)CC3)c2N(Cc2ccc(C)cc2)C1=O (stereo not given)
- T cruzi inh = 46
- B2AR ag = -8
- Beta cell apopt = -2
- RanGTP-Impb inh = 2.0
- Calb FLC = 3
- LANA-H2A inh = 2.9
- Bfl-1 A1 inh = 0.7
- UCH37 inh = 2.1

Cc1noc(C)c1S(=O)(=O)N1CCCC(C(=O)N2CCC(C)CC2)C1 (stereo not given)
- T cruzi inh = 0
- B2AR ag = 49*
- Beta cell apopt = -5
- RanGTP-Impb inh = -2.5
- Calb FLC = -2
- LANA-H2A inh = -4.7
- Bfl-1 A1 inh = -0.1
- UCH37 inh = 1.7

Profiles as entered above. Values in the order: T cruzi inh	B2AR ag	Beta cell apopt	RanGTP-Impb inh	Calb FLC	LANA-H2A inh	Bfl-1 A1 inh	UCH37 inh
`CCOc1cc(/C=C/C(=O)OCC(=O)NCCN2C(=O)CSC2=O)ccc1OCC(C)C` is listed with ·	4	2	·	·	-0.5	0.7	-18
`O=C(NCc1cccs1)C1CCCN1C(=O)Nc1cccc(Cl)c1` (stereo not given) is listed with 0	0	2	4.5	2	5.1	0.7	-0.6
`Cc1cc(N2CCCC2=O)cc(C)c1S(N)(=O)=O` is listed with -2	5	-6	0.0	-6	-4.5	0.1	3.4
`CSc1ccccc1C(=O)Nc1ccccc1C` is listed with 4	4	-8	2.8	13	-4.2	0.9	2.3
`CCN(CC(=O)Nc1c(F)cccc1F)C(=O)c1cccnc1SC` is listed with -16	-6	-10	0.7	-9	-10	-0.4	5.3

Next part
SMILES | T cruzi inh | B2AR ag | Beta cell apopt | RanGTP-Impb inh | Calb FLC | LANA-H2A inh | Bfl-1 A1 inh | UCH37 inh
CC(=O)Nc1cc[n+](CC(=O)c2ccc(Cl)cc2)cc1 | -15 | -6 | -1 | 0.6 | -18 | 2.0 | -1.0 | 5.5
CCSc1cnn(-c2ccccc2)c(=O)c1SCC | -14 | -7 | -11 | -0.9 | -3 | -4.7 | 0.8 | 4.4
N#Cc1c(NC(=O)COC(=O)C2CC3C=CC2C3)oc(-c2ccccc2)c1-c1ccccc1 (stereo not given) | 18 | 1 | -3 | 8.0 | 3 | -9.1 | 0.2 | -1.4
O=C1C(=O)N(CCN2CCOCC2)C(c2ccccn2)/C1=C(/O)c1ccc(F)cc1 (stereo not given) | 1 | 2 | -3 | 19* | 1 | -8.7 | -0.1 | 8.2
CCC(C)NS(=O)(=O)c1ccc(NC(=O)C2CCN(C(=O)c3ccco3)CC2)cc1 (stereo not given) | -17 | -1 | -2 | 4.7 | 7 | -7.1 | 0.2 | 0.4
CCn1c(SCc2nc3ccccc3[nH]2)nnc1-c1ccccc1OC | -1 | -13 | -4 | 3.7 | -12 | 7.0 | 0.5 | 0.8
Cc1ccc(NC(=O)CN(C)C(=O)c2ccc(-n3cncn3)c([N+](=O)[O-])c2)cc1 | -7 | 7 | 1 | -4.2 | 1 | 0.7 | 0.4 | -0.4
